Rango dissoc inh = prevents RanGTP from dissociating the Rango-importin beta complex. O95149+P62826. Biochemical FRET Rango-importin beta, RanGTP-induced dissociation. Potency, µM (highest dose often 46.1 µM), for inactives: at the top dose activity change, negative = inhibition. actives 0.071% (n = 340,000). AID 540253; active means falling FRET ratio curve, often poorly fitted, with flat reads before Ran was added; inconclusive means other falling curves, or compound fluorescence or quenching; inactive means flat or rising ratio curve;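 also: potency is read from the fitted curve at half-maximal effect; % of control where 0% means no effect; nearly all actives have a fitted effect of over 45% in size; -100% = wells without RanGTP and RCC1; the record marks most hits as doubtful in a second field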
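Quantitative HTS using a FRET biosensor: 0.1 uM Rango, 0.25 uM importin beta, 0.6 uM Ran, 2 mM GTP, 0.2 uM RCC1 final, PBS with DTT, Tween-20 and BSA. Post-read taken 45 min after Ran addition.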
miR-21 FLuc = raises the signal of a miR-21 reporter. HeLa miR-21 FLuc reporter, luciferase, 48 h. Potency, µM (highest dose often 38.3 µM), for the others: at the highest dose reporter change, positive = more light. 340,000 tested, under 10 active; active = well fitted rising curve with a large enough effect; inconclusive = small, poorly fitted or top-dose-only effect; inactive = no such curve, though single readings can be large or run the other way;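 also: % of control where 0% means no effect; miR-21 action dims this reporter so a rising signal means less miR-21 action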
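Luminescence from a firefly luciferase reporter carrying a miR-21 binding site downstream, stably expressed under a CMV promoter in HeLa cells that make miR-21 endogenously, reports miRNA modulation after 48 h compound exposure up to approximately 40uM final.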
GLA inh pH 4.5 = blocks human alpha-galactosidase A at pH 4.5; P06280; activity change, negative = inhibition, % at 105 µM; purified enzyme, 4-MU-alpha-Gal fluorescence, pH 4.5; 230,000 tested, under 10 active; inconclusive = small, poorly fitted or top-dose-only inhibition, or a rising curve; inactive = flat fitted curve, though single readings scatter; no compound was filed as active;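 also: 0% = full activity with enzyme and -100% = basal without enzyme; dose as in the result columns while the protocol names 77 µM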
Rango-impB inh = Rango-importin beta binding inhibition; Rango CFP/YFP FRET sensor + importin beta, 45 min; Potency, µM (doses to about 92.2 µM), for inactives: at the highest dose inhibition of complex formation; AID 540263; actives 0.031% (n = 340,000); active = rising FRET ratio curve, often small or poorly fitted; inconclusive = mostly compound fluorescence or quenching in the first reads; inactive = flat curves in all reads;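 also: potency is read from the fitted curve at half-maximal effect; 0% = DMSO wells and 100% = buffer wells lacking importin beta; nearly all actives have a fitted effect of over 15% in size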
Target sequence (Q14974 whole entry, looked up): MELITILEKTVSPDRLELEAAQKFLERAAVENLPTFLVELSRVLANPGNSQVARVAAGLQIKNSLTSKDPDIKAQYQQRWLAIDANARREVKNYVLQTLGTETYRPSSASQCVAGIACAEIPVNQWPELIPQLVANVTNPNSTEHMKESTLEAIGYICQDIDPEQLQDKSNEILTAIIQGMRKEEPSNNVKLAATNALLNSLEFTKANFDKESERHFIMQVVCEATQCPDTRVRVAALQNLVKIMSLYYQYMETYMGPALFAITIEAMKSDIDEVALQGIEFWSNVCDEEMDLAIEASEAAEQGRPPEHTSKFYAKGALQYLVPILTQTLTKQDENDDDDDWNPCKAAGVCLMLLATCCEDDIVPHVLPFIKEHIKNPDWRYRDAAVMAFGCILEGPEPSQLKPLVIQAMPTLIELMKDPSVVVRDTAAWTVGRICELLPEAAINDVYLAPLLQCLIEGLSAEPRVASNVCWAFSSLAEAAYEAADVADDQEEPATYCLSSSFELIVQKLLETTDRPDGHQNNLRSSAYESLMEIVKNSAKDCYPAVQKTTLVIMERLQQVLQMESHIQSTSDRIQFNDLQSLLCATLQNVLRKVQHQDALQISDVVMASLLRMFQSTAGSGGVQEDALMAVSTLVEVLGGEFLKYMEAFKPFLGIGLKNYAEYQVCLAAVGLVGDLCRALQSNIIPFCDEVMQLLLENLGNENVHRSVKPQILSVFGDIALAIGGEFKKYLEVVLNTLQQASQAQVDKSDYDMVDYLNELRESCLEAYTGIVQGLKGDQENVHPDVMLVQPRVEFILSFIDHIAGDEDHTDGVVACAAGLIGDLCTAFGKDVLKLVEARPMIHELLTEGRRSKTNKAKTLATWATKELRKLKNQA
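FRET biosensor (snurportin 1 IBB flanked by EYFP and cerulean), 50 nM, with compound 5 min, then 0.125 microM importin beta in PBS, 1 mM DTT, 0.02% Tween-20, 0.1% BSA. CFP/YFP ratio read after 45 min at room temperature; pre-read flags interference.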
The depositor's hits bear a star; ? = inconclusive; · = no result given.

SMILES	Rango dissoc inh	miR-21 FLuc	GLA inh pH 4.5	Rango-impB inh
O=[N+]([O-])c1cc(-c2csc(NCCc3nc4cc(Cl)c(Cl)cc4n3CCCO)n2)ccc1Cl	-18%	·	·	-3.3%
COc1ccc2c(c1)CCCN2S(=O)(=O)c1ccc(Cl)cc1	-19%	20%	·	-0.3%
CCn1ncc(NC(=S)Nc2ccc3c(c2)OCO3)c1C(N)=O	1%	-28%	-2	1.2%
COc1ccc(N=CC2=C(O)CCCC2=O)cc1	0%	-6%	-4	0.2%
OCCCc1n[nH]c(=S)n1-c1ccccc1	-5%	0%	-6	-1.8%
CN1CCN(C(=O)Nc2ccc([N+](=O)[O-])cc2)CC1	-8%	-4%	-5	-0.9%
COc1ccc(OC)c(C(=O)CSc2nc3c(c(=O)n(C)c(=O)n3C)n2C(C)C)c1	3%	2%	1	-2.1%
Cc1ccccc1Nc1nc(N)nc(COC(=O)CC2CC3CCC2C3)n1 (centres undefined)	0%	2%	-13	1.3%
O=C(CN1C(=O)C2CC=CCC2C1=O)Nc1ccc(F)cc1F (centres undefined)	3%	·	·	-3.0%
CCN(Cc1cc(=O)n2cc(Cl)c(C)c(Cl)c2n1)Cc1nc2ccccc2c(=O)[nH]1	-22%	-1%	0	?
CCOC(=O)c1c(SC)nc(SC)c2c1CCC2	31%	4%	-8	-2.6%
O=C(OCc1ccc([N+](=O)[O-])cc1)C1CC(=O)N(Cc2ccccc2Cl)C1 (centres undefined)	-16%	-1%	·	-4.0%
CCN1C(=O)/C(=C\N(C)C)S/C1=N\S(=O)(=O)c1ccc(C)cc1	1%	-2%	-6	-0.1%
O=C(Cn1c(=O)oc2ccccc21)Nc1ccc(F)c(F)c1	?	0%	·	-0.8%
NC(=O)[C@@H]1CCCN1Cc1nc(Cc2ccccc2Cl)no1	-2%	-7%	0	-0.5%
COc1ccc(C(=O)N(C)Cc2ccccc2)cc1Br	·	-14%	-5	·
Cc1cccc(C)c1OCc1cc(C(=O)N2CCC[C@H]2C(N)=O)no1	-20%	-6%	·	-0.4%
Cc1nc2nc(SCc3nc4ccccc4[nH]3)[nH]c2cc1Br	-1%	-1%	0	-7.5%
COc1ccc(OC)c(NC(=S)NCCSc2ccc(C)cc2)c1	21%	0%	-5	-0.7%
FC(F)(F)c1cc(-c2ccco2)nc(NCc2ccc(Cl)cc2)n1	-13%	1%	1	-3.1%
COc1ccc(-c2cc(C(F)F)n3ncc(C(=O)N4CCN(C(=O)c5ccco5)CC4)c3n2)cc1	-13%	-3%	8	?
COc1ccc(Cl)cc1NC(=O)Nc1ccc(Br)cn1	-1%	1%	1	1.7%
Cc1nnc(NC(=O)CSc2nnc(CNC(=O)c3ccccc3F)n2C(C)C)s1	-3%	·	·	-0.3%
O=C(OCC(=O)N1CCCc2ccccc21)c1cccc(C(F)(F)F)c1	?	·	·	0.7%
Cc1ccc(C2CN(c3ccccc3)CC2C(=O)c2ccc(F)cc2)cc1 (centres undefined)	20%	-7%	8	0.4%
COc1cccc(Cl)c1NC(=O)N1CCN(c2ccnc3cc(Cl)ccc23)CC1	?	5%	-6	0.7%
CCOc1ccc(CCNC(=O)C2CCCN(S(=O)(=O)N3CC(C)CC(C)C3)C2)cc1OCC (centres undefined)	-1%	-3%	·	-2.1%
Cc1ccc(CNC(=O)c2ccc(COc3ccccc3)cc2)cc1	26%	-19%	2	-0.9%
COc1cc([N+](=O)[O-])ccc1NC(=O)COC(=O)C1=NN(c2ccccc2)C(=O)CC1	12%	·	·	-2.6%
COc1ccccc1NC(=O)CN1CCN(C2c3ccccc3-c3ccccc32)CC1	-2%	-4%	-3	0.3%
CCOc1ccccc1NC(=O)COc1ccc2c(c1)OCO2	-3%	-29%	·	0.8%
Cc1ccc(NCCC(=O)c2cccc([N+](=O)[O-])c2)c(C)c1	16%	-21%	-10	-0.4%
Cc1cc(N2CCN(Cc3cn(C)nc3-c3cccc(Cl)c3)CC2)cc(C)n1	3%	?	-20	-0.4%
CCOc1ccccc1NC(=S)NC1CCCCC1	1%	1%	6	0.0%
Cc1cc(NC(=O)CCC(=O)N(CC(=O)NCC2CCCO2)c2cccc(C)c2C)no1 (centres undefined)	32%	-3%	·	-0.1%
Cc1cccc(OC(C)C(=O)N2CCCc3ccccc32)c1 (centres undefined)	-7%	-5%	-3	-3.5%
CN(C)c1nc(Cl)nc(NCCOc2ccccc2)n1	?	-17%	2	?
COC(=O)c1c(N2C(=O)[C@H]3[C@@H](C2=O)[C@]2(C(=O)Nc4ccccc42)N2CCC[C@@H]32)sc(C)c1C	·	2%	-3	·
CC(=O)c1ccc(OCCCC(=O)NCC(c2ccco2)N(C)C)cc1 (centres undefined)	-13%	-6%	8	?
CCC(C)Sc1nc2c(c(=O)[nH]c(=O)n2C)n1Cc1ccc(Cl)cc1 (centres undefined)	-10%	-33%	8	-2.5%
Nc1c(C(=O)NCc2ccco2)nnn1-c1ccccc1	34%	-45%	-5	5.0%
CCN(CC(=O)NCc1cccs1)C(=O)/C=C/c1ccc(C)cc1	8%	·	·	0.8%
COc1ccccc1NC(=O)COc1cc(Br)c(CNCCCN2CCOCC2)cc1OC	-5%	-17%	-8	-1.6%
O=S(=O)(Nc1ccccc1N1CCOCC1)c1ccc(Cl)s1	1%	-9%	14	-0.2%
COc1ccccc1-c1nnc(NC(=O)c2ccc3ncsc3c2)o1	-11%	-21%	0	3.1%
O=[N+]([O-])c1ccc(CNc2ccc(F)cc2)s1	-24%	7%	·	0.2%
C/C(O)=C(/N=O)C(=O)Nc1ccccc1	0%	-3%	-8	0.1%
COc1cc(C(=O)NC(=S)NNC(=O)c2ccc3c(c2)OCO3)cc(OC)c1OC	-7%	-9%	0	-0.8%
COc1ccc(N2CCN(C(=O)CCCn3c(=O)[nH]c4cc(Cl)ccc4c3=O)CC2)cc1	-1%	-1%	1	4.9%
c1ccc(CSC2=NCCCN2)cc1	2%	-5%	0	1.6%
CC[N+](CC)(CC)CCOc1ccc(/C=C/c2ccccc2)cc1	2%	·	·	-0.4%
O=C(Nc1ccccc1)C(O)C(O)C(=O)Nc1ccccc1 (centres undefined)	13%	1%	5	3.9%
CCN(C[C@H]1N[C@@](CC)(C(=O)OC)[C@H]2C(=O)N(Cc3ccccc3)C(=O)[C@@H]12)S(=O)(=O)c1ccc(OC(F)(F)F)cc1	9%	·	·	-2.7%
CCCOc1ccccc1NC(=O)c1c(-c2ccccc2)noc1C	3%	7%	-2	58µM*
O=C(Cn1nnc(-c2cccs2)n1)NCc1cccs1	-2%	-2%	5	-1.1%
CC(c1nnc(SCC(=O)Nc2cccnc2Cl)n1-c1ccccc1)N(C)C (centres undefined)	3%	-1%	1	-2.4%
O=C(O)CN1C(=O)/C(=C\c2ccc(OC(=O)c3ccco3)cc2)SC1=S	1%	0%	·	7.0%
O=C(CC1C(=O)NCCN1Cc1ccccc1)NC1CCCCCC1 (centres undefined)	-6%	1%	·	?
COc1ccc(CCNC(=O)CSc2nc(C)cc(C)n2)cc1OC	-14%	1%	-13	0.6%
CCCCCc1ccc(-c2ccc(OC)cc2)nc1	-2%	10%	0	-1.4%
The listing continues.
SMILES	Rango dissoc inh	miR-21 FLuc	GLA inh pH 4.5	Rango-impB inh
Cc1ccc(Oc2cc(-n3nc(C)cc3C)ncn2)cc1	-2%	-48%	-4	7.3%
Cc1ccccc1-c1cc(C(=O)Nc2sc(C)c(C)c2C(N)=O)c2ccccc2n1	-2%	?	-12	0.5%
Cc1c(C(=O)Nc2ccc(F)cc2)nnn1-c1cccc(C(F)(F)F)c1	9%	-9%	-1	0.0%
O=C(Nc1cc(C(F)(F)F)ccc1Cl)C(Sc1ccccn1)c1ccccc1 (centres undefined)	1%	1%	-11	-0.5%
CCN(CC)C(=O)Cn1cc(C(=O)C(=O)N(C)C2CCN(C)CC2)c2ccccc21	18%	0%	·	0.3%
C(=N\n1cnnc1)/c1cccn1-c1ccccc1	-9%	-1%	10	-1.8%
CCC(CO)N=CC1=C(O)C(C(=O)c2ccccc2)CCC1=O (centres undefined)	45%	-2%	-1	-0.2%
COc1ccc(-c2nnn(CC(=O)N(CC3CCCO3)C(C(=O)NC(C)(C)C)c3ccco3)n2)cc1OC (centres undefined)	-1%	-16%	1	-0.5%
Cc1cc(/C=C/C(=O)O)c(C)n1-c1ccc(Cl)cc1	-6%	-9%	1	-4.7%
CN(C)c1ccc(S(=O)(=O)N(C)C)cc1NC(=O)Cc1cccc2ccccc12	-24%	8%	·	-4.1%
CC(=O)Nc1cccc(Nc2nc(-c3cccs3)nc3ccccc23)c1	-8%	15%	·	-2.9%
Cc1cc(N/N=C/c2ccc(O)cc2)c2cccc(C)c2n1	?	14%	·	?
CC1CCN(C(=O)c2ccc(S(=O)(=O)N3CCOCC3)cc2)CC1	-8%	1%	·	0.2%
O=c1ccnc(Nc2ccc(Cl)cc2)[nH]1	-1%	-5%	-13	-1.5%
COc1cc(CN2CCN(c3ncccn3)CC2)cc(OC)c1	9%	-7%	·	3.5%
O=C(CN1CCOCC1)OCCCc1ccccc1	14%	-8%	1	1.6%
Cc1[nH]c2ccccc2c1C(=O)C(C)OC(=O)C1CCC1 (centres undefined)	12%	·	·	2.5%
Oc1ccc2ccccc2c1C=Nc1ccccc1Br	-15%	3%	·	?
COc1ccc(CCNC(=O)Cn2nnc(-c3ccc(N(C)C)cc3)n2)cc1OC	-9%	-16%	7	-3.4%
COC(=O)c1nn(-c2cccc(C(F)(F)F)c2)ccc1=O	-10%	-5%	·	-5.6%
COc1ccccc1CC(=O)N1CCCC1	-8%	-7%	-4	-1.0%
CCOC(=O)c1c(NC(=O)COc2ncnc3ccccc23)sc(C(C)=O)c1C	?	-13%	2	0.2%
COC(=O)CN1CCN(C(=O)c2ccc(F)cc2)c2ccccc2C1	15%	-3%	-10	1.1%
CS(=O)(=O)NCc1ccc(C(=O)NCc2ccccc2)cc1	2%	-20%	·	1.1%
N#C/C(=N/Nc1ccccc1F)C(=N)N1CCOCC1	-7%	-27%	-10	-4.2%
CC(=O)C(=Nc1cccc(Cl)c1)NNc1ccccc1C	29%	·	·	-3.5%
COCCNC(=O)CN(c1cc(Cl)ccc1OC)S(=O)(=O)c1ccc(C)c([N+](=O)[O-])c1	-12%	1%	5	1.2%
Cc1cc(NC(=O)C(C)C)ncc1NC(=O)Cc1ccccc1	2%	-6%	3	-3.1%
COc1cccc(NC(=O)CN(C)C(=O)c2cc(S(=O)(=O)NCc3ccccc3)ccc2C)c1	0%	7%	·	0.2%
COc1ccc(OCc2nc3ccccc3n2C(C)C)cc1	-18%	-9%	0	4.5%
COC(=O)c1c(NC(=O)CN2CCN(Cc3ccc4c(c3)OCO4)CC2)sc(C)c1C	8%	24%	-3	0.4%
COC(=O)c1ccccc1NC(=O)c1c(O)c2cccc3c2n(c1=O)CCC3	·	-2%	-1	·
CC(OC(=O)Cc1ccc(Cl)cc1)C(=O)NC1CCCCC1C (centres undefined)	0%	·	·	6.1%
Cc1ccc(N2C(=O)[C@@H]3[C@H](C2=O)C2c4ccccc4C=CN2[C@@H]3C(=O)c2ccco2)cc1 (some centres undefined)	?	-16%	3	?

Compound activity (PubChem BioAssay)

This is a subset; count on the stated rates, not on these rows.
